NPYLR7 ag: mosquito NPYLR7 agonism | AID 1259423 | 0.15% of 270,000 active | activation, % at 10 µM | HEK293T NPYLR7/Galpha15, GCaMP6s calcium fluorescence; in the data active = activation above about 40%;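 also: 0% = vehicle and 100% = reference agonist at the receptor; some compounds past the cut are filed as inactive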
NPYLR7 ag max-min: further read-out of NPYLR7 ag, marked with its call; activation, %; measured here: Max-Min RFU normalised activation; some inactives read as strong as hits;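 span of the calcium signal over five minutes; 0% = vehicle and 100% = native peptide agonist; compound fluorescence can raise it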
The depositor's hits bear a star; & = joins results of further samples.

Values run as follows: NPYLR7 ag | NPYLR7 ag max-min
- Cc1ccc2nc(-c3ccco3)nc(Cl)c2c1
  1 | -2
- CC(C)c1ccc(CN(CCCC(=O)NC(N)=O)C2CC2)cc1
  1 | 5
- O=C(c1cnn2c1NC(c1ccco1)CC2C(F)(F)F)N1CCSCC1 (stereo not drawn)
  22 | 13
- CCCn1c(S(=O)(=O)CC(=O)Nc2ccc(Cl)cc2F)n[nH]c1=O
  3 | 2
- COCc1noc(-c2ccc(-c3ccc(C(C)N4CCOCC4)cc3)nc2)n1 (stereo not drawn)
  1 | -4
- O=C(NC1CCCC1)c1ccc(N2CCC(NC3CCN(Cc4ccccc4)C3)CC2)cc1 (stereo not drawn)
  2 | -3
- O=C1c2oc3ccc(Cl)cc3c(=O)c2C(c2ccccn2)N1c1ccccn1 (stereo not drawn)
  9 | 4
- CCN(CC)C(=O)Oc1ccc2c(ccn2Cc2cc(F)ccc2C)c1-c1cc(C)cc(C)c1
  3 | 2
- CCOc1ccc(-c2ccnc(N3CCN(S(=O)(=O)c4ccccc4C(F)(F)F)CC3)n2)cc1
  4 | 2
- Cc1cccc(-c2nc3ccc(Br)cn3c2NC(C)(C)CC(C)(C)C)c1
  10&25 | 16&23
- Cc1cc(C)cc(NC(=O)CC(=O)NCCNc2cccnc2)c1
  16 | 9
- CCc1cc(CN(C)Cc2ccc(C(C)=O)cc2)on1
  5 | -1
- CCOc1ccccc1OCCOc1ccc(Cl)cc1C
  25 | 12
- c1ccc(Oc2cccc(Oc3ccccc3)n2)cc1
  -4 | -5
- CC(C)C1CN(C(=O)c2ccncc2F)CCC(=O)N1Cc1ccc(F)cc1 (stereo not drawn)
  -5 | -10
- O=C(c1ccoc1)N1CCC2(CCCN(CCCc3ccccc3)C2)C1 (stereo not drawn)
  6 | 4
- C=CCn1c(COc2cc(C)ccc2C(C)C)nnc1SCC(=O)NC(=O)NC
  0 | -5
- CC(C)N(CC(=O)N1CC(=O)N(c2ccc(Cl)cc2)C1)C(=O)c1cccc(C(F)(F)F)c1
  3 | 16
- COCCCN(Cc1c(-c2ccc(F)cc2)noc1N1CCN(C)CC1)C(=O)COC
  8 | 6
- Fc1c(F)c(F)c(Sc2nnc(-c3cccs3)n2CC2CCCO2)c(F)c1F (stereo not drawn)
  -1 | -4
- Cc1cncc(NC(=O)c2ccc(CN3CCCC(C(N)=O)C3)cc2)c1 (stereo not drawn)
  11 | -4
- CCC(O)c1nc2ccccc2n1CCCOc1ccccc1C (stereo not drawn)
  2 | 6
- Cc1cc(Nc2ccc(C(N)=O)cc2)nc(-n2nc(C)cc2C)n1
  3&0 | 4&5
- CO/N=C(/C(=O)N1CCOCC1)c1csc(NC=O)n1
  -11 | -13
- O=C(NCC1(N2CCCCC2)CCCCC1)N1CCC(CO)CC1
  5 | 0
- CCCCN(CC(=O)N(CCc1c[nH]c2ccccc12)Cc1ccc(OC)cc1)C(=O)NCC
  17 | 16
- COc1c(C(=O)N2CCN(C(C)C(F)(F)F)CC2)c(C)nn1C (stereo not drawn)
  2 | 9
- C=CC[C@@H]1CC=C[C@@H](CC=C)N1C(=O)c1onc2ccccc12
  7&11 | -1&3
- N#CC(NC(=O)CC(F)(F)F)c1ccc(Cl)c(Cl)c1 (stereo not drawn)
  5 | 2
- CN=c1scc(-c2ccc(-c3ccccc3)cc2)n1N=Cc1ccc2c(c1)OCO2
  -6 | -7

Entries of single compounds, quoted from the list. Values in the order: NPYLR7 ag, NPYLR7 ag max-min
Cc1cncc(NC(=O)c2ccc(CN3CCCC(C(N)=O)C3)cc2)c1 (stereo not drawn) reads 11, -4
CC(C)N(CC(=O)N1CC(=O)N(c2ccc(Cl)cc2)C1)C(=O)c1cccc(C(F)(F)F)c1 reads 3, 16
COc1c(C(=O)N2CCN(C(C)C(F)(F)F)CC2)c(C)nn1C (stereo not drawn) reads 2, 9
CN=c1scc(-c2ccc(-c3ccccc3)cc2)n1N=Cc1ccc2c(c1)OCO2 reads -6, -7
Fc1c(F)c(F)c(Sc2nnc(-c3cccs3)n2CC2CCCO2)c(F)c1F (stereo not drawn) reads -1, -4

Returning to the listing; the two compounds before the break are reprinted first.
Values run as follows: NPYLR7 ag | NPYLR7 ag max-min
- N#CC(NC(=O)CC(F)(F)F)c1ccc(Cl)c(Cl)c1 (stereo not drawn)
  5 | 2
- CN=c1scc(-c2ccc(-c3ccccc3)cc2)n1N=Cc1ccc2c(c1)OCO2
  -6 | -7
- COc1ccc(-n2ccnc2-c2nccn2CCN(C)C)cc1
  -2 | -10
- Cc1noc(CSc2ccccc2C(=O)Nc2cccc(C#N)c2)n1
  -2 | -1
- COCCS(=O)(=O)NC(c1ccc(C(C)C)cc1)C(C)C (stereo not drawn)
  5 | 8
- O=C(NNC(=O)c1ccccc1C(F)(F)F)c1ccc(=O)n(Cc2ccc(Cl)cc2)c1
  -7 | -13
- CN(C)c1ccc(NC(=O)c2cccc(F)c2)cc1CN(Cc1ccco1)C(=O)C1CC1
  3 | 5
- CCOC(=O)c1cnc(C)nc1NCCc1ccccc1Cl
  -2 | 0
- Cc1sc(-c2ccco2)nc1C(=O)N1CCCC(O)(C(F)(F)F)C1 (stereo not drawn)
  -1 | -1
- C=Cc1ccc(S(=O)(=O)Nc2ccccc2C(=O)NCCc2ccc(OC)cc2)cc1
  1 | -2
- O=c1[nH]c(CN2CCCCCCC2)nc2sc3c(c12)CCCC3
  -1 | -2
- CCOC(=O)c1c(-c2ccccc2)cc(-c2ccccc2)sc1=O
  5 | 6
- COC(=O)c1cc(OCC(=O)Nc2ccon2)cc(C(=O)OC)c1
  3 | 2
- CCC(C)N(Cc1ccccc1OS(=O)(=O)c1ccc(OC)cc1)C(=O)c1ccccc1F (stereo not drawn)
  4 | 9
- CCOc1ccc(OCCCOc2ccc(Cl)cc2)cc1
  -1 | -1
- CCCN(C)c1cc(COC)nc(SCc2ccc(C(=O)NCc3ccncc3)cc2)n1
  -8 | 7
- COc1ccc(CCn2c(-c3c(OC)ccc4ccccc34)nc3ccc(Br)cc3c2=O)cc1
  3 | -2
- CNC(=O)c1cccc(CS(=O)(=O)NC(C)(C)C)c1
  -5 | -7
- Cc1noc(C)c1CC(=O)N(Cc1ccccn1)c1ccc(Cl)cc1
  0 | -1
- O=C(c1ccc(Cl)c(Cl)c1)N1CCN(c2c(-c3ccccc3)cnc3ncnn23)CC1
  -5 | -7
- COC(=O)C1C(=O)c2c([nH]c(C(=O)OCCOC(C)C)c2C)CC1C (stereo not drawn)
  12 | 5
- O=C(CN(CCCN1CCOCC1)C(=O)c1cc(Cl)cc(Cl)c1)N(Cc1ccc2c(c1)OCO2)Cc1ccco1
  -2 | 6
- O=C(c1ccc(CSc2ccc([N+](=O)[O-])cn2)cc1)N1C2CCC1CC(Oc1cccc(C(F)(F)F)c1)C2 (stereo not drawn)
  17 | 2
- O=c1oc2ccccc2cc1-c1nnc(Nc2ccc(Oc3ccc(Cl)c4ccccc34)c(Cl)c2)s1
  -6 | -2
- CCOC(=O)CSc1nnc(NC(=O)C(CC)c2ccccc2)s1 (stereo not drawn)
  4 | 4
- Cc1cccc(-c2nnn3c2nc(N2CCCC(C)C2)c2ccccc23)c1 (stereo not drawn)
  4 | 3
- CC(C1CC1)N(C)C(=O)C1CC(=O)N(c2ccc3c(c2)CCC3)C1 (stereo not drawn)
  10 | 7
- CN1CCC=C(CCNC(=O)Cc2ccc(F)cc2)C1
  -1 | 0
- COCCN1C(=O)C2C(c3ccc(O)c(OC)c3)NN(C)C2C1=O (stereo not drawn)
  20 | 15
- Cc1ccc(-c2cc(C(=O)Nc3ccc(F)c(F)c3)c3ccccc3n2)s1
  1 | -4
- CN(Cc1cc2ccccc2s1)C(=O)CCc1nnc(Cc2c[nH]c3ccccc23)o1
  3&-15 | -4&-15
- O=C(c1ccc(S(=O)(=O)C(F)F)cc1)N1CCN(S(=O)(=O)c2ccccc2)CC1
  2 | 2
- COc1ccc(OC)c2[nH]c(=O)c(CCNC(=O)c3ccc(C)c(C)c3)cc12
  0 | 43
- CC1CN(C(=O)COC(=O)c2ccccc2NCCO)CC(C)O1 (stereo not drawn)
  -3 | -3
- Clc1nccc2c1ccc1ccccc12
  5 | -13
- Cn1c(=NC(=O)CN2C(=O)c3ccccc3C2=O)sc2cc3c(cc21)OCO3
  3 | 2
- COc1cccc(NC(=O)C2(S(=O)(=O)c3ccc(C)c(C)c3)CCCC2)c1
  9 | 7
- CCOC(=O)C1(CCCc2ccccc2)CCN(C(=O)c2ccccc2-n2cccn2)CC1
  12&11 | 6&11
- O=C(NCC1(c2ccccc2)CCOCC1)c1ccc(-n2cccn2)cc1
  -2 | -6
- CCOC(=O)c1nn(-c2ccc(C)cc2)c(=O)cc1NCc1cccc(OC)c1
  8 | 6
- Cc1ccc(C(=O)Cn2c3c(sc2=N)CCCC3)cc1
  -14&4 | -17&-3
- CC1=C(C(=O)OC(C)C)C(c2ccc3c(c2)OCO3)C2=C(CCCC2=O)N1 (stereo not drawn)
  4 | 0
- CCOC(=O)c1c(N2CCCC2=O)sc(C)c1CC
  1 | 1
- CN(Cc1cnn(C)c1)C(=O)C1CCCN(C(=O)Nc2ccccc2)C1 (stereo not drawn)
  1 | -1
- COc1cccc(-c2ccc(SCC(=O)N3CCCCCC3)nn2)c1
  -4 | -6
- Cc1nc2ccccc2nc1N1CCN(C(=O)c2cccs2)CC1
  21 | 26
- Cc1ccc(-n2c(=O)[nH]c3nc(N4CCOCC4)sc3c2=O)cc1
  -8 | -8
- Cc1cc(C)n(CC2(CNc3nc(C4CCCC4)nc4c3CNC4)CC2)n1
  1 | 4
- CCOc1ccc(NC(=O)N2CCc3nc(Cc4ccccc4OC)nc(N4CCOCC4)c3C2)cc1
  0 | 1
- CCOC(=O)CN1CCN(c2cccc(Br)c2)C(=O)C1C (stereo not drawn)
  -1 | 4
- O=C(C1CCCCC1)N1CCSC1c1cccc(OCc2ccccc2)c1 (stereo not drawn)
  9 | 17
- COc1cc(-c2c(C#N)c(N)n3c(nc4ccccc43)c2C#N)ccc1OC(=O)N(C)C
  4 | 1
- CCCCCCCCCSc1nc2c(c(=O)[nH]c(=O)n2C)n1CCOC
  18 | 14
- COCCn1c(C)cc(O)c(C(c2ccc(OC)cc2)N2CCN(c3ccccc3)CC2)c1=O (stereo not drawn)
  14 | 4
- COCc1cc(C)nc(N/N=C\c2ccc(I)o2)c1C#N
  4 | 5
- Nc1nc(N)nc(COc2ccc(Cl)cc2Br)n1
  6 | 1
- Nc1nc(-c2cccnc2)cs1
  3 | 10
- CCOc1ccccc1-c1nc(COC(=O)c2nnn(-c3ccc(OC)cc3)c2C)c(C)o1
  -2 | -8
- O=C(C(=O)N1CCC(c2cc(Cc3ccccc3)[nH]n2)CC1)N1CCCC1
  9 | 8
- CCOC(=O)C1=C(C)NC2=C(C(=O)CC(C)(C)C2)C1c1ccc(Cl)cc1 (stereo not drawn)
  -3 | -10
- CC(C)N(C)CC(=O)N(CC1CCCO1)C1CCSC1 (stereo not drawn)
  -13 | -13
- COC(=O)c1[nH]ncc1CN1CCN(Cc2cc(C)cc(C)c2)C(=O)C1
  0 | -8

A second format for 4 compounds above.
SMILES,NPYLR7 ag,NPYLR7 ag max-min
O=C(C(=O)N1CCC(c2cc(Cc3ccccc3)[nH]n2)CC1)N1CCCC1,9,8
Nc1nc(-c2cccnc2)cs1,3,10
COCc1cc(C)nc(N/N=C\c2ccc(I)o2)c1C#N,4,5
CC(C)N(C)CC(=O)N(CC1CCCO1)C1CCSC1 (stereo not drawn),-13,-13

(list continues)
Values run as follows: NPYLR7 ag | NPYLR7 ag max-min
- CC1=CCC2CC1NC(=O)CCOCCC(=O)NC2(C)C (stereo not drawn)
  -3 | -3
- Cc1cccc(C(=O)NC2CC(=O)N(CCN3CCOCC3)C2)c1 (stereo not drawn)
  -3 | -5
- O=C(N/N=C\c1ccccn1)c1cc(-c2ccccc2)nc2ccccc12
  -1 | -1
- CCOC(=O)N1CCN(C(=O)c2cc(-c3ccc([N+](=O)[O-])cc3)nn2-c2ccc(C)cc2C)CC1
  -4 | -2
- COc1ccc(C(=O)NCC(=O)N2CCN(Cc3ccc4c(c3)CCO4)CC2)cc1OC
  0 | -1
- O=c1cccc2n1CC1CC2CN(c2nc(NCC3CCCO3)nc(N3CCOCC3)n2)C1 (stereo not drawn)
  -4 | -7
- CC(C)N(Cc1ccc(OS(=O)(=O)c2ccc(F)cc2)cc1)C(=O)c1cccs1
  25 | 32
- O=C(CCC1CCCCC1)N=C1N=C2N=CC=CN2Cc2ccccc21
  -16 | -22
- CCN(CC)CCNc1nc2ccc(F)cc2s1
  4 | 3
- CCOC(=O)C1=C(O)/C(=C\c2ccc(O)c(OCC)c2)SC1=Nc1ccc(C)cc1
  -12 | -12
- CCCN(CCC)C(=O)Cc1csc(NC(=O)CN(C(=O)c2ccc(F)cc2)C(C)C)n1
  4 | 6
- CC(C)=CCn1c(C(=O)NCC2CC2)cc2sccc21
  3 | 2
- O=c1[nH]c(SCc2ccccc2)nc2c1cnn2CCO
  -1 | -2
- CCCn1ccnc1SC(C)C(=O)NC(=O)NC (stereo not drawn)
  10 | 15
- CCSc1nc(NC(C)C)c2cnn(CCNC(=O)c3ccco3)c2n1
  -2 | -3
- CC(NC(=O)CSC1CCCC1)c1ccc(-c2ccccc2)cc1 (stereo not drawn)
  -1 | -5
- COCCN(CC(=O)Nc1nc(CC(=O)NCCCN2CCCCC2C)cs1)C(=O)c1ccc(C)cc1 (stereo not drawn)
  15 | 9
- c1ccc(-c2csc(CNC3CCN(c4ncccn4)CC3)c2)cc1
  7 | 3
- COc1cccc(C(=O)Cn2nc(-c3ccc(F)cc3)oc2=O)c1
  9 | 13
- O=C(NS(=O)(=O)c1ccc(Cl)nc1)c1ccc(COCC(F)(F)F)cc1
  4 | 2

The list is partial; rates above refer to the full screens.
